Screens as filed in PubChem.
KCNQ2 inh – KCNQ2 channel blockers in CHO-K1 cells – cell-based, FluxOR thallium flux, B-score, primary screen (AID 2156). O88943. 20 min; hits give low values; only compounds with negative scores are shown here; some inactives read as strong as hits. B-score at 10 µM. 310,000 compounds, 1.1% hits;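 active = fluorescence ratio B-score at most minus 3 library SDs, with starting brightness B-score within 2 library SDs, cut at about -5.5 in these data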
Target sequence (O88943 whole entry, looked up): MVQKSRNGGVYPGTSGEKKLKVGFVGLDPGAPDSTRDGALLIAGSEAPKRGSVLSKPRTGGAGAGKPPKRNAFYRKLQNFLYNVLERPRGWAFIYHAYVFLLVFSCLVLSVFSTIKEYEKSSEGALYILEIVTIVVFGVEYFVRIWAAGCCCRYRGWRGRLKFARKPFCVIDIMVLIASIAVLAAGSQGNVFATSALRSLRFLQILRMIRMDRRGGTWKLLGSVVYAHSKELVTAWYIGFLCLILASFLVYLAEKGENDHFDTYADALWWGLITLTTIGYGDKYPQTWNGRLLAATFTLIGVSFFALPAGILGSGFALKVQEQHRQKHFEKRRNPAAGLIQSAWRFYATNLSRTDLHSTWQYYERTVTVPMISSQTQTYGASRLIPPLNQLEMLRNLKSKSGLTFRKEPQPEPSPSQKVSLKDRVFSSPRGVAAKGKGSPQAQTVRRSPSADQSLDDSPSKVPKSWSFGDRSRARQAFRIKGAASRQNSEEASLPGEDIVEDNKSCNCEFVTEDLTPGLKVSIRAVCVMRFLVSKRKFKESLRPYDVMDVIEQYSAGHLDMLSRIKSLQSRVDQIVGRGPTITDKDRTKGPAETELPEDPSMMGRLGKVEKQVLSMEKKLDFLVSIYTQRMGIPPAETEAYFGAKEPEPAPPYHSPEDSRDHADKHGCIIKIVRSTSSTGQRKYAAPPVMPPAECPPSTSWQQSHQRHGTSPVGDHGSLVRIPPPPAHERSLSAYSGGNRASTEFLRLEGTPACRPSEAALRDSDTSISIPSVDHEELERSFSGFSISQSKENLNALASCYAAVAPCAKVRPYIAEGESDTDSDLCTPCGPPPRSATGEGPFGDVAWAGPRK
KCNQ2 inh baseline – recorded beside KCNQ2 inh, whose call it bears; B-score; measured here: initial fluorescence intensity artifact check;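 brightness before thallium and not channel activity; 0 = typical well and far values either way flag optical interference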
The depositor's hits bear a star; i = inactive. These rows are one share of the data (hit frequency here may not be typical).

SMILES | KCNQ2 inh | KCNQ2 inh baseline
Cc1cc(C)n(-c2nc3c(c(=O)[nH]c(=O)n3C)n2C)n1 | i | -1.12
Cc1cc(C)c(C)c(S(=O)(=O)Nc2ccccc2C(=O)NCCCN2CCOCC2)c1C | i | 1.5
COc1ccccc1-n1cnnc1SCC(=O)Nc1ncc(Cl)cc1Cl | i | 0.67
COc1ccc(CCN2C(=O)NC(NS(=O)(=O)c3ccc(NC(C)=O)cc3)(C(F)(F)F)C2=O)cc1OC (stereo not drawn) | i | -0.63
COC(=O)c1ccccc1NC(=O)CCS(=O)(=O)c1ccc(Br)cc1 | i | 1.06
CCOC(=O)c1cc2sccc2n1Cc1ccc(C#N)cc1 | i | 0.22
Cc1ccc(Cl)cc1NC(=O)C1C2CCC(O2)C1C(=O)O (stereo not drawn) | i | -0.03
Cc1nn(CC(=O)NCc2ccccc2F)c(C)c1[N+](=O)[O-] | i | -2.29
Cc1occc1C(=O)NC(C)c1ccc2c(c1)OCO2 (stereo not drawn) | i | -1.04
Cc1c(NC(=O)c2ccc(Br)o2)cccc1C(=O)O | i | -1.48
COc1cc2cc(CN(Cc3nnnn3Cc3ccco3)C3CCCCC3)c(=O)[nH]c2cc1OC | i | 3.89
COc1ccc(-c2cc(C(=O)Nc3sc4c(c3C#N)CCCC4)c3ccccc3n2)cc1OC | i | 2.31
CCOC(=O)C1=C(NC(=S)NC(=O)c2ccccc2)c2ccccc2CC1C(C)C (stereo not drawn) | i | 0.01
O=C(CCn1c(=O)[nH]c2ccsc2c1=O)N1CCN(c2ccc([N+](=O)[O-])cc2)CC1 | i | 1.83
COc1cc(NC(=O)CSc2nc3ccccc3c(=O)n2C)ccc1NC(=O)c1ccco1 | i | 0.71
CCC(C)NC(=O)c1cc(-c2ccc(OC)cc2)on1 (stereo not drawn) | i | -1.02
COCCNC(=O)c1cc(S(=O)(=O)N(C)c2ccccc2OC)ccc1C | i | 0.63
CCOC(=O)Cc1nnc(NC(=O)C(CC)Sc2nc(C)cc(=O)[nH]2)s1 (stereo not drawn) | i | -0.04
CC1CCN(C(=S)c2ccc(-c3ccc(Cl)cc3Cl)o2)CC1 | i | -0.15
CC(=O)NS(=O)(=O)c1ccc(NC(=O)c2ccc3c(c2)OCO3)cc1 | i | -0.04
O=C(NCc1ccccc1)C1=C[C@H](c2ccc(C(F)(F)F)cc2)C[C@H](OCCCCO)O1 | i | -0.86
Cc1cc(NC(=O)NCC(F)(F)F)no1 | i | -1.04
COc1cc(SC#N)ccc1N=Cc1c(C)[nH]n(-c2ccc(C)c(C)c2)c1=O | i | -0.57
Cc1ccc(CCNS(=O)(=O)c2ccc3c(c2)C(C)(C)C(=O)N3C)cc1 | i | 2.41

Taken from above:
Value for COCCNC(=O)c1cc(S(=O)(=O)N(C)c2ccccc2OC)ccc1C in KCNQ2 inh baseline: 0.63
Value for CCOC(=O)C1=C(NC(=S)NC(=O)c2ccccc2)c2ccccc2CC1C(C)C (stereo not drawn) in KCNQ2 inh baseline: 0.01

More records.
SMILES | KCNQ2 inh | KCNQ2 inh baseline
O=C1CSC(c2ccccc2)N1CC12CC3CC(CC(O)(C3)C1)C2 (stereo not drawn) | i | -2.12
COc1cc(OC)c2ccc(=O)oc2c1C(CC(=O)N1CCCC1)c1ccc(N(C)C)cc1 (stereo not drawn) | i | -1.48
COc1nc(NCc2cccnc2)nc(NC2CCCCC2)n1 | i | 0.21
CCOc1ccc2ccccc2c1CNc1nnnn1C | -6.01* | 0.01*
O=C(N/N=C/c1ccccn1)c1ccc(S(=O)(=O)N2CCCCCC2)cc1 | i | -3.02
O=C(O)[C@@H](O)[C@H](O)C(=O)O | i | 0.01
Clc1ccc(-c2nnc(SCc3ccon3)o2)c(Cl)c1 | i | 0.49
Cn1c(/C=C/c2ccc(Cl)cc2)nc2ccccc2c1=O | i | -1.05
CC1=C(C(=O)N(C)C)C(c2ccc(Cl)c(Cl)c2)NC(=O)N1 (stereo not drawn) | i | -1.33
CCOc1ccc(C2=C/C(=C/c3cccnc3)C(=O)O2)cc1 | i | 2.32
COc1cccc(NC(=O)C(Cc2ccccc2)NC(=O)C2CCC(C)CC2)c1 (stereo not drawn) | i | -0.14
O=C(COc1ccc(Cl)cc1)NCc1ccccc1 | i | -0.64
CN(C)C(=O)COC(=O)c1cc(Cl)cc(Cl)c1N | i | -1.27
CN(CCOc1ccccc1)CC(=O)Nc1ccc(S(=O)(=O)N2CCCC2)cc1 | i | -3.16
CC(=O)N1CCN(c2cc(N3CCCC3)c(F)cc2[N+](=O)[O-])CC1 | i | -0.68
CCC(C)N1C(=O)CCC1C(=O)N1CCN(c2ccc(F)cc2)CC1 (stereo not drawn) | i | 1.95
Cc1[nH]c2ccc(-c3nnc(SCC(=O)c4ccc(F)cc4)o3)cc2c1C | i | 0.46
CN(C)C(=O)N1CCC(C(=O)NCc2ccc(F)cc2)CC1 | i | -1.24
c1cncc(-c2nc(NCC3COc4ccccc4O3)c3ccccc3n2)c1 (stereo not drawn) | i | 0.77
CCC(=O)N1CCN(c2ccc(Cl)cc2NC(=O)c2ccc3c(c2)OCCO3)CC1 | i | -0.03
CCOc1ccc(OCC)c(C2C(C#N)=C(N)N(c3cccnc3)C3=C2C(=O)CC(C)(C)C3)c1 (stereo not drawn) | i | 0.18
CCOc1ccccc1N1CC(C(=O)Nc2cccc(S(=O)(=O)N3CCCCC3)c2)CC1=O (stereo not drawn) | i | -3.46
O=C(NCCCN1CCCCCC1)c1ccc2c(Cl)c3c(nc2c1)CCCC3 | i | -1.13
Cc1ccc(Nc2cc(=O)[nH]c(=O)[nH]2)c(C)c1 | i | 2.85
CCCCn1c(N)c(N(CC(C)C)C(=O)CCNC(=O)c2ccccc2Cl)c(=O)[nH]c1=O | i | -1.16
CC1Cc2ccccc2N1CC(=O)NC(=O)NC1CCCCC1 (stereo not drawn) | i | 0.73
CCOC(=O)c1cccnc1SCC(=O)Nc1ccc(C)cc1 | i | -0.93
COc1cc(/C=N/NC(=O)c2ccncc2)ccc1OCc1cnc(Cl)s1 | i | 0.95
O=C1CCC2c3ccc4ccccc4c3CCN12 (stereo not drawn) | i | 1.41
Cc1cc2ccccc2n1CCNC(=O)COc1ccccc1 | i | 0.85
CN1CCOc2cc(S(=O)(=O)NCc3ccc(S(N)(=O)=O)cc3)ccc21 | i | 1.29
Cc1noc(C)c1CSc1nnc(-c2ccncc2)n1-c1ccc(Cl)c(Cl)c1 | i | -0.24
CCc1ccc(NC(=O)CSc2nc3ccccc3c(=O)n2CCCC(=O)N2CCCC2)cc1 | i | 2.96
NC(=O)c1ccc(N=Cc2c(O)ccc3ccccc23)cc1 | i | 0.72
Cc1ccc(NS(=O)(=O)c2ccc(C(=O)NCCCN3CCOCC3)cc2)cc1 | i | -0.42
Cc1ccc(S(=O)(=O)CCC(=O)Nc2ccc(S(=O)(=O)N(C)C)cc2)cc1 | i | 2.15
COc1ccc(CC(=O)NNC(=O)c2nn(Cc3ccccc3)c(=O)c3ccccc23)cc1OC | i | 0.77
CCC(C)(C)NC(=O)C(c1ccc(C)cc1)N(Cc1cccnc1)C(=O)c1csnn1 (stereo not drawn) | i | -0.45
Cc1ccc(C)c(S(=O)(=O)Nc2cc3c4c(c2)CC(=O)N4CCC3)c1 | i | 0.48
CC1CCN(C(=O)CSc2nnc(Cn3c(=O)sc4ccccc43)n2C)CC1 | i | -2.11
Cc1ccc(C)c(OCCNc2ccc([N+](=O)[O-])cn2)c1 | i | 0.07
N#Cc1c(-c2cccc(F)c2)cc(-c2ccccc2)nc1Br | i | 1.2
CN(C(=O)c1ccc2c(c1)OCO2)C1(C(=O)NC2CCCC2)CCCCC1 | i | -0.01
CCCC[C@@H]1CNCCN1CCc1cccc2ccccc12 | i | -0.01
CCOC(=O)N1CCC(N2C(=O)c3ccccc3C2Nc2cc(Cl)c(OC)cc2OC)CC1 (stereo not drawn) | i | 0.15
CC(OC(=O)/C=C/c1cccc(C(F)(F)F)c1)C(=O)NC1CCCCC1C (stereo not drawn) | i | -0.72
Cc1cc(=O)[nH]c2c1cnn2Cc1ccccc1 | i | -0.02
COc1ccccc1N1CCN(CCOc2c(OC)cccc2OC)CC1 | i | -0.43
O=C1CCC(=O)N1OCCCCOc1ccccc1 | i | -0.84
COc1ccccc1NS(=O)(=O)c1ccc(NC(C)=O)cc1 | i | 0.5
C=CCn1c(SCC(=O)NCc2ccc3c(c2)OCO3)nnc1C1COc2ccccc2O1 (stereo not drawn) | i | -0.08
Cc1cc(C)c2[nH]c(C(=O)Nc3ccc4c(c3)OCO4)cc2c1 | i | -0.14
O=C(CCC(=O)Nc1ccccc1Cl)NNC(=O)NC1CCCCC1 | i | 0.22
Cc1ccc(NS(=O)(=O)c2cccc(C(=O)NCC(c3ccco3)N3CCCCC3)c2)cc1 (stereo not drawn) | i | -0.04
Cc1cccc(C2c3[nH]c4ccccc4c3CCN2Cc2cccn2-c2ncccn2)c1 (stereo not drawn) | i | 0.1
S=c1[nH]nc(-c2ccccn2)n1/N=C/c1ccc(-c2ccccc2Cl)o1 | i | 0.49
O=C(CSc1ccc2nnc(-c3ccccn3)n2n1)Nc1ccccc1 | i | -0.43
CCCCn1c2ccccc2c2nnc(SCC(=O)NC3=NN=C(c4ccccc4)CS3)nc21 | i | -1.1
COc1cc2cc(C(N)=O)c(N)nc2cc1OC | i | 0.65
Cc1ccc(OCc2nnc(N)s2)cc1 | i | 0.46

Record cards (already shown).
Profile of CCc1ccc(NC(=O)CSc2nc3ccccc3c(=O)n2CCCC(=O)N2CCCC2)cc1 : KCNQ2 inh = i; KCNQ2 inh baseline = 2.96
Profile of CCC(C)NC(=O)c1cc(-c2ccc(OC)cc2)on1 (stereo not drawn) : KCNQ2 inh = i; KCNQ2 inh baseline = -1.02
Profile of Cc1cc2ccccc2n1CCNC(=O)COc1ccccc1 : KCNQ2 inh = i; KCNQ2 inh baseline = 0.85

New compounds follow:
SMILES | KCNQ2 inh | KCNQ2 inh baseline
Cc1onc(-c2ccccc2)c1C(=O)N/N=C/c1ccccc1OC(C)C | i | 2.41
N#CNC(=Nc1ccccc1F)SCc1ccc(C(=O)O)cc1 | i | 0.23
CSc1nc(Cl)cc(Nc2ccccc2N)n1 | -6.05* | 1.12*
O=[N+]([O-])c1ccccc1-c1ccc(C(=S)N2CCCC2)o1 | i | 0.06
CCOc1cc(C(=S)N2CCOCC2)ccc1OC(=O)c1cccc(C)c1 | i | 1.87
O=S(=O)(Nc1ncccn1)c1ccc(NC(=S)NCCc2ccc(Cl)cc2)cc1 | i | -0.95
CC(C)(O)c1nnn(-c2ccccc2)c1C(F)(F)F | i | 1.61
O=C(NC1CC1)c1cccc(Br)c1 | i | 0.83
CCOC(=O)/C=C/C(=O)OCC(=O)N1CCN(C(=O)c2ccco2)CC1 | i | 1.44
CCCCC(=O)NNC(=S)NCc1ccccc1 | i | -0.05
CCOc1ccc(S(=O)(=O)Nc2ccccc2SC)c2cccnc12 | i | 3.05
Cc1nn(Cc2ccccc2)c(Cl)c1/C=C1\NC(=S)NC1=O | i | 0.56
CCOC(=O)C(C(=O)Nc1ccccc1C)C1CCCCC1 (stereo not drawn) | i | -0.21
CCOC(=O)C1CCCN(CCCc2ccccc2)C1 (stereo not drawn) | i | 0.65
Cc1cccc(OC(=O)NCCOC(=O)N(O)c2ccc(Cl)cc2)c1 | i | 1.58
COc1cc(OC)cc(OCC(O)Cn2cnc3cc(C)c(C)cc32)c1 (stereo not drawn) | i | -0.52
CCCCc1nc(Cl)c(CO)n1Cc1ccc(-c2ccccc2-c2nn[nH]n2)cc1 | i | -0.95
Cc1nonc1NC(=O)c1oc2ccc(F)cc2c1C | i | -1.03
Cc1cccc(N2CCN(S(=O)(=O)c3ccc4c(c3)CC(C)N4C(=O)C3CC3)CC2)c1C (stereo not drawn) | i | -0.76
COc1cc(/C=N/Nc2nc(C)cc(=O)[nH]2)ccc1O | i | 0.2
CC1=CC(c2ccccc2)=Nc2ccc(C)cc2N1 | i | 0.34
Clc1ccccc1-c1nnc(CNC2CC2)o1 | i | -2.08
CCCCCOC(=O)CC(C(=O)OCCCCC)N1CCCCC1 (stereo not drawn) | -9.22* | -1.6*
Cn1c(=S)n(/N=C/c2cccs2)c2ccccc21 | i | 0.41

Fetched one by one from above (seven):
SMILES | KCNQ2 inh | KCNQ2 inh baseline
Cc1ccc(Cl)cc1NC(=O)C1C2CCC(O2)C1C(=O)O (stereo not drawn) | i | -0.03
Cc1nn(Cc2ccccc2)c(Cl)c1/C=C1\NC(=S)NC1=O | i | 0.56
Cc1ccc(C)c(S(=O)(=O)Nc2cc3c4c(c2)CC(=O)N4CCC3)c1 | i | 0.48
CCOc1ccc2ccccc2c1CNc1nnnn1C | -6.01* | 0.01*
CCOC(=O)C1CCCN(CCCc2ccccc2)C1 (stereo not drawn) | i | 0.65
COc1ccccc1NS(=O)(=O)c1ccc(NC(C)=O)cc1 | i | 0.5
Cc1ccc(C)c(OCCNc2ccc([N+](=O)[O-])cn2)c1 | i | 0.07

Further compounds.
SMILES | KCNQ2 inh | KCNQ2 inh baseline
CC(OC(=O)c1ccncc1)C(=O)Nc1cc(S(=O)(=O)N2CCCCC2)ccc1Cl (stereo not drawn) | i | -0.14
CCOc1ccc(-c2noc(CCC(=O)O)n2)cc1 | i | -0.01
CN1c2ccccc2C(=O)/C(=C\Nc2ncccn2)S1(=O)=O | i | 3.03
COc1ccc(C(=O)NNC(=O)CCn2nnc(-c3ccc(C)cc3)n2)cc1OC | i | 0.99
CC1=CC(C)(C)N(S(=O)(=O)c2ccc(F)cc2)c2ccc(C)cc21 | i | -0.44
O=[N+]([O-])c1cc([N+](=O)[O-])c2cccnc2c1O | i | -2.35
CCN(CC)c1ccc2ccc(=O)oc2c1 | i | 2.41
COc1ccc2c(c1)c(=O)c(C(=O)c1ccc(F)cc1)cn2CC(=O)Nc1ccc(F)cc1 | i | 0.13
C#CC(C)(C)NC(=O)c1cnc(-c2ccccc2)nc1-c1ccccc1 | i | -1.69
Clc1nc(-c2ccccn2)nc2scc(-c3ccccc3)c12 | i | 0.65
Fc1cccc(CN2CCSCC2)c1 | i | 0.42
CCOC(=O)c1c(NC(=O)COC(=O)CNC(=O)c2ccc(Cl)cc2Cl)sc(C(=O)N(C)C)c1C | i | 0.24
